Rango release inh – prevents RanGTP from dissociating the Rango-importin beta complex; O95149+P62826; Biochemical FRET Rango-importin beta, RanGTP-induced dissociation; Potency, µM (top dose mostly 46.1 µM), inactives show at the top dose activity change, negative = inhibition; 0.071% of 340,000 active; active means falling FRET ratio curve, often poorly fitted, with flat reads before Ran was added; inconclusive means other falling curves, or compound fluorescence or quenching; inactive means flat or rising ratio curve;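 note: potency is the fitted concentration of half-maximal effect; % of control where 0% means no effect; nearly all actives have a fitted effect of over 45% in size; -100% = wells without RanGTP and RCC1; the record marks most hits as doubtful in a second field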
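FRET read at 45 min, room temperature: inhibitors block the CFP/YFP signal rise when RanGTP (0.6 uM Ran, 2 mM GTP, 0.2 uM RCC1) frees Rango (0.1 uM) from importin beta (0.25 uM). Pre-read after 5 min compound exposure flags interference.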
GLA inh pH 4.5 – inhibitors of human alpha-galactosidase A at pH 4.5 | P06280 | purified enzyme, 4-MU-alpha-Gal fluorescence, pH 4.5 | activity change, negative = inhibition, % at 105 µM | 230,000 tested, under 10 active | AID 1467; inconclusive = small, poorly fitted or top-dose-only inhibition, or a rising curve; inactive = flat fitted curve, though single readings scatter; no compound was filed as active;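 note: 0% = full activity with enzyme and -100% = basal without enzyme; dose as in the result columns while the protocol names 77 µM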
miR-21 reporter – raises the signal of a miR-21 reporter. AID 2288. HeLa miR-21 FLuc reporter, luciferase, 48 h. Potency, µM (highest dose often 38.3 µM), for the others: top-dose reporter change, positive = more light. 340,000 tested, under 10 active; active = well fitted rising curve with a large enough effect; inconclusive = small, poorly fitted or top-dose-only effect; inactive = no such curve, though single readings can be large or run the other way;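 note: % of control where 0% means no effect; miR-21 action dims this reporter so a rising signal means less miR-21 action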
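Luminescence from a firefly luciferase reporter carrying a miR-21 binding site downstream, stably expressed under a CMV promoter in HeLa cells that make miR-21 endogenously, reports miRNA modulation after 48 h compound exposure up to approximately 40uM final.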
Rango complex inh – prevents formation of the Rango-importin beta complex; Q14974; Rango CFP/YFP FRET sensor + importin beta, 45 min; Potency, µM (titrated, usually from 92.2 µM), for inactives: at the top dose inhibition of complex formation; 0.031% of 340,000 active; AID 540263; active = rising FRET ratio curve, often small or poorly fitted; inconclusive = mostly compound fluorescence or quenching in the first reads; inactive = flat curves in all reads;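 note: potency is the fitted concentration of half-maximal effect; 0% = DMSO wells and 100% = buffer wells lacking importin beta; nearly all actives have a fitted effect of over 15% in size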
Target sequence (Q14974 whole entry, looked up): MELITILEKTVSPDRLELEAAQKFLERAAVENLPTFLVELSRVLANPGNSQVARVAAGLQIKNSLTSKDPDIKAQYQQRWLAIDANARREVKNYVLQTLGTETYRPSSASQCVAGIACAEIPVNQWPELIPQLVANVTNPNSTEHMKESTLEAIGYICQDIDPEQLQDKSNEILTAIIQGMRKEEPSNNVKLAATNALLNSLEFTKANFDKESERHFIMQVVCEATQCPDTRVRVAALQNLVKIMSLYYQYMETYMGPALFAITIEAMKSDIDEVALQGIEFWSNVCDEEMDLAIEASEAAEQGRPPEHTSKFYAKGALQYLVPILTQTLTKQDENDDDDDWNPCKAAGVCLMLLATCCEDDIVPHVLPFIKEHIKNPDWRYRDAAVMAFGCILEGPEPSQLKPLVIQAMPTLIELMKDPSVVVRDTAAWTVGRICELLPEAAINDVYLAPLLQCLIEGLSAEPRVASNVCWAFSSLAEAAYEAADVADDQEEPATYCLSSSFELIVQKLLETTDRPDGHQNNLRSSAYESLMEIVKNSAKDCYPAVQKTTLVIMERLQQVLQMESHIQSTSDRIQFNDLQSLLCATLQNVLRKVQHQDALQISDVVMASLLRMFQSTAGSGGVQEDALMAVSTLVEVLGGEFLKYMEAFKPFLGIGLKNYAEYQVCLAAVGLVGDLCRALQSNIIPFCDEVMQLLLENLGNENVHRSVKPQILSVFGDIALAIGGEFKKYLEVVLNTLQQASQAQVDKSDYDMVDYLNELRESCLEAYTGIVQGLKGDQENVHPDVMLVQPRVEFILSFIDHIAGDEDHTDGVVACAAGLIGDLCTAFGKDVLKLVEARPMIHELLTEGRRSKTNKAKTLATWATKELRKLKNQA
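FRET biosensor (snurportin 1 IBB flanked by EYFP and cerulean), 50 nM, with compound 5 min, then 0.125 microM importin beta in PBS, 1 mM DTT, 0.02% Tween-20, 0.1% BSA. CFP/YFP ratio read after 45 min at room temperature; pre-read flags interference.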
* marks the source's active call; other numbers are inactive results; ? = inconclusive; . = not tested or not shown.

Rango release inh	GLA inh pH 4.5	SMILES	miR-21 reporter	Rango complex inh
-3%	-2	Cc1ccc(C)c(S(=O)(=O)NC(C)C(=O)Nc2ccc(-c3nc4ccccc4s3)cc2)c1 (configuration not stated)	-45%	6.0%
29%	4	CC1CCc2c(sc(NC(=O)CN3CCN(C(=O)c4ccco4)CC3)c2C#N)C1 (configuration not stated)	-7%	?
8%	3	O=C(NCc1ccccn1)C1CCN(Cc2cnn(-c3ccccc3)c2-n2cccc2)CC1	-5%	0.1%
-8%	.	Cc1nc(NC(=O)c2ccncc2)sc1C(=O)N(C)C	-2%	1.4%
-9%	.	Cc1onc(-c2ccccc2)c1C(=O)N[C@@H]1C(=O)N2C1SC(C)(C)[C@@H]2C(=O)O (some centres not stated)	.	0.4%
25%	2	CS(=O)(=O)N1CCN(c2ccccc2NC(=O)c2ccc3ccccc3c2)CC1	-3%	3.8%
-1%	3	CC1C[N+](=C2C=C(N3CCOCC3)CC(C)(C)C2)CC(C)O1 (configuration not stated)	1%	-0.9%
-4%	.	COc1cccc(NC(=O)CN(C)C(=O)c2ccc(-n3cncn3)c([N+](=O)[O-])c2)c1	.	-0.7%
-10%	3	Cc1ccc(NC(=O)C2CCN(C(=O)c3ccccc3C)CC2)cc1	-3%	0.6%
-5%	-4	C=CCOn1c(=O)c(-c2ccccc2)[n+]([O-])c2ccccc21	5%	-3.0%
19%	.	COc1ccc(CNS(=O)(=O)c2ccc(-n3cnnn3)c(C)c2)cc1	-2%	-2.7%
-3%	.	CSc1ccc(/C=C/C(=O)OCC(=O)N2CCCCCC2)cc1	.	0.1%
2%	1	CC(C)(C)N=C1NN=C(c2cc3ccccc3o2)CS1	-19%	3.0%
2%	.	Cc1ccc(NC(=S)NC(=O)C2CCCC2)cc1C	-54%	0.5%
?	4	Nc1cccc2c1C(=O)N(C(=O)c1ccc(S(=O)(=O)N3CCCCCC3)cc1)C2=O	-6%	?
4%	6	CCc1n[nH]c(=O)n1Cn1c(CC)n[nH]c1=O	-4%	0.1%
10%	-9	CCn1cc(C(=O)N2CCN(c3ccccc3F)CC2)c(=O)c2ccc(C)nc21	-5%	1.8%
12%	3	Cc1cc(C)c(NC(=O)c2c[nH]c(=S)n2-c2ccc(F)cc2)c(C)c1	-3%	0.2%
-9%	.	CCOc1ccc(CCNC(=O)c2cccc(S(=O)(=O)N3CC(C)OC(C)C3)c2)cc1OCC (configuration not stated)	.	-2.3%
11%	.	Cc1ccc(C2OC(=O)C=C2c2ccccc2)cc1 (configuration not stated)	.	0.5%
10%	-6	Cc1ccc(-n2c(Cc3ccccc3)n[nH]c2=S)cc1	-2%	-1.1%
4%	.	Cc1ccc(S(=O)(=O)NC2CCCCCC2)cc1	.	1.4%
-3%	4	Cc1ccc(-c2nn3c(C)nnc3s2)cc1NC(=O)c1ccco1	8%	2.4%
-17%	-9	CCOC(=O)c1ccc(Nc2c(OCC)c(=O)c2=O)cc1	-1%	4.5%
-9%	.	O=C(Nc1ccc(Cl)cc1F)c1ccc(-n2cncn2)cc1	.	-1.0%
-13%	.	O=C(Oc1ccc(C(=S)N2CCOCC2)cc1)c1ccccc1F	-3%	0.5%
2%	.	O=C(CSc1ncccn1)NNC(=O)c1ccccc1	.	-0.7%
31%	4	Cc1oc2c(O)c(O)ccc2c(=O)c1-c1ccccc1	-13%	-3.8%
-9%	6	Cc1cc(C)nc(NC(=O)c2ccc(Cl)c([N+](=O)[O-])c2)n1	-4%	-1.2%
-6%	.	Cc1ccc(OCC(=O)NNC(=S)NC(=O)c2ccc(Br)o2)c(C)c1	3%	4.5%
-17%	6	COc1nc(OCC#N)nc(N2CCCCC2)n1	-15%	-1.2%
?	.	COc1ccc2c(c1OC)c(=O)n1c3ccc(OC(C)C(=O)NCCCN4CCOCC4)cc3c3ccnc2c31 (configuration not stated)	8%	?
-8%	1	Cc1ccc(-n2c(=O)cc(N3CCN(Cc4ccccc4)CC3)[nH]c2=O)cc1	-6%	0.4%
-4%	-1	O=C(Nc1cccc(S(=O)(=O)c2cccc(NC(=O)C3CC3)c2)c1)C1CC1	14%	1.8%
-9%	1	CCOc1ccc(C(Nc2ccc(C)cc2)P2(=O)OCCCO2)cc1 (configuration not stated)	-7%	-3.6%
22%	4	O=C(N1CCCC1)C(F)(F)Oc1ccc(F)cc1	-11%	0.3%
16%	4	CCOC(=O)c1c(C)[nH]c(C(=O)COC(=O)C2=NNC(=O)CC2)c1C	-17%	0.0%
-7%	1	O=C(NC1C(=O)NNC1c1ccccc1)c1ccc(F)cc1 (configuration not stated)	-40%	1.5%
18%	.	CCOC(=O)c1cnc2c(OC)cccc2c1Oc1ccccc1	-7%	0.1%
-16%	0	Cc1nnc(SCC(=O)Nc2sc3c(c2C#N)CCCC3)[nH]c1=O	-10%	0.0%
-16%	-16	CN(C)Cc1ccccc1Sc1ccc(O)cc1O	-3%	7.1%
24%	1	O=C(NNc1nc(=O)c2cccnc2s1)c1ccccc1O	-6%	0.6%
?	-1	CCCc1cc2c(=O)c(-c3nc4ccccc4s3)c(COCC(=O)O)oc2cc1O	-30%	?
16%	-1	Cc1ccc(C)c(C(C)NC(=O)CC#N)c1 (configuration not stated)	1%	-0.8%
0%	-3	S=C1NC2=C(CCC/C2=C\c2ccccc2)C(c2ccccc2)N1 (configuration not stated)	-11%	1.4%
-2%	.	CC(C)c1ccc(NC(=S)N2CCN(S(=O)(=O)c3ccccc3)CC2)cc1	4%	-1.1%
5%	.	CCCCN(C)CCNC(=O)CN1C(=O)CSc2ccc(S(=O)(=O)N3CCCC3)cc21	-1%	-2.0%
-11%	-2	O=C(COC(=O)c1ccc(Cl)nc1)c1ccc2c(c1)OCCO2	-30%	-1.7%
2%	1	Cn1c(CSc2ncccn2)nnc1SCC(=O)N1CCCCCC1	-1%	-0.9%
-16%	.	O=C(Cn1ccc([N+](=O)[O-])n1)NCc1ccccc1	.	1.2%

Following part:
Rango release inh	GLA inh pH 4.5	SMILES	miR-21 reporter	Rango complex inh
4%	-10	CC(=O)N1CCc2cc(N=NC3=C(O)CCCC3=O)ccc21	-25%	10.0%
-10%	-8	Cc1cc(=O)n(CC(C)O)c(O)c1C#N (configuration not stated)	-4%	5.5%
-8%	-3	COc1cc(C2CC(=O)Oc3c(C(CCN4CCN(c5ccccc5)CC4)c4ccc(N(C)C)cc4)c(OC)cc(OC)c32)cc(OC)c1OC (configuration not stated)	-4%	3.8%
-14%	.	COc1ccc(C(=O)COC(=O)C(O)c2ccccc2)c(OC)c1 (configuration not stated)	.	-4.3%
-22%	0	Clc1ccc(Cn2cc(/C=N/n3cnnc3)c3ccccc32)cc1	7%	-4.2%
16%	-4	CC(NC(=S)Nc1ccc(OC(F)F)cc1)c1ccc(F)cc1 (configuration not stated)	?	-1.5%
1%	-4	CN(CC(=O)Nc1ccccc1F)S(=O)(=O)c1ccc2c(c1)n(C)c(=O)c(=O)n2C	5%	-2.6%
0%	3	Cc1ccc(/C=C/C(=O)Nc2cc(S(=O)(=O)N3CCCCCC3)ccc2OCC(F)(F)F)o1	10%	?
1%	-1	O=C(NCc1ccccc1)c1ccc(Br)cc1Br	-42%	2.2%
-2%	-4	CC1=CC(C)(C)N2C(=O)C3(SCC(=O)N3c3ccc(F)cc3)c3cc(C)cc1c32 (configuration not stated)	30%	2.3%
-12%	2	CCCOc1ccc(C(=O)NCCC(=O)NCCCC(=O)O)cc1	-4%	-1.1%
-17%	.	CC(=O)Nc1ccc(NC(=O)CSc2nccn2Cc2ccco2)cc1	-17%	0.0%
8%	-5	COc1ccc(C(=O)c2coc3c2C(=O)C(=O)c2ccccc2-3)cc1	?	2.2%
8%	-3	COCc1nc(-c2ccc(-c3ccccc3)nc2OC)no1	-50%	-4.0%
7%	.	COc1ccc(CN(C)S(=O)(=O)c2nnc(NC(=O)c3cccc(F)c3)s2)cc1	2%	3.4%
-17%	2	CCOC(=O)/C(C#N)=C/c1c(Oc2cccc(C)c2)nc2c(C)cccn2c1=O	1%	-0.1%
-3%	-1	c1ccc(C2=Nn3c(nnc3-c3ccncc3)SC2)cc1	14%	0.0%
11%	2	COc1ccccc1/C=N/NC(=O)c1csc(C)c1C	-36%	-1.0%
37%	1	Cc1cc(C)cc(C(=O)NC(CC(N)=O)c2ccc(NC3CCCCC3)c([N+](=O)[O-])c2)c1 (configuration not stated)	-2%	-0.1%
-2%	2	O=C(CCn1nnc2ccccc2c1=O)N[C@@H](Cc1ccccc1)C(=O)O	-1%	-1.0%
2%	2	CC1CN(C(=O)Nc2ccccc2)c2ccccc2-[n+]2ccsc21 (configuration not stated)	-12%	-2.1%
-24%	5	O=C(Nc1ncccc1Cl)c1ccc2c(c1)OCCO2	-42%	-0.7%
-4%	-7	COc1ccc(N2C(=O)CC(N3CCCC4CCCCC43)C2=O)cc1 (configuration not stated)	2%	-1.5%
4%	-14	COc1cccc(-c2nc(CS(=O)(=O)CC(=O)NCCCN3CCc4ccccc4C3)c(C)o2)c1	-5%	-5.3%
0%	-9	Cc1cc(C)c2c(NC(=S)NC(=O)c3ccccc3)nn(C)c2n1	-5%	-2.3%
-2%	-10	Cc1ccc2c(c1)NC(=O)C(CC(=O)NCCCN1CCCC1=O)O2 (configuration not stated)	-1%	1.7%
-27%	-14	COc1ccc(C2/C(=C(/O)c3ccc(C)cc3)C(=O)C(=O)N2CC2CCCO2)cc1OC (configuration not stated)	-1%	7.8%
15%	-3	COc1ccc(/C=C/C(=O)c2ccc[nH]2)c(OC)c1OC	-62%	-1.1%
15%	4	C=CCn1c(C)cc(C(=O)COC(=O)C2CC(=O)N(Cc3ccccc3)C2)c1C (configuration not stated)	-7%	0.1%
2%	.	CCCCn1c(N)c(N(Cc2ccccc2OC)C(=O)C(C)Oc2ccc(F)cc2)c(=O)[nH]c1=O (configuration not stated)	.	-0.2%

High-throughput results: PubChem BioAssay, National Center for Advancing Translational Sciences (NCATS)

This is a subset; rates above refer to the full screens.
